High-throughput results: PubChem BioAssay, several laboratories
HNF4A DNA FP = change in binding of human HNF4A to DNA, primary screen, biochemical, fluorescence polarization, FITC-DNA; Hepatocyte nuclear factor 4-alpha (Homo sapiens), P41235; 1 h; activity change, % at 10 µM; 360,000 compounds, 0.3% hits; in the data active means activity change above about 30%, passing the limit was not always enough;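 further: controls were the assay level and a saturating level of protein; the project sought stronger binding though the title names inhibitors; some compounds called inactive have numbers as strong as hits; positive values seem to mean higher polarization but the record does not say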
Target sequence (P41235 whole entry, looked up): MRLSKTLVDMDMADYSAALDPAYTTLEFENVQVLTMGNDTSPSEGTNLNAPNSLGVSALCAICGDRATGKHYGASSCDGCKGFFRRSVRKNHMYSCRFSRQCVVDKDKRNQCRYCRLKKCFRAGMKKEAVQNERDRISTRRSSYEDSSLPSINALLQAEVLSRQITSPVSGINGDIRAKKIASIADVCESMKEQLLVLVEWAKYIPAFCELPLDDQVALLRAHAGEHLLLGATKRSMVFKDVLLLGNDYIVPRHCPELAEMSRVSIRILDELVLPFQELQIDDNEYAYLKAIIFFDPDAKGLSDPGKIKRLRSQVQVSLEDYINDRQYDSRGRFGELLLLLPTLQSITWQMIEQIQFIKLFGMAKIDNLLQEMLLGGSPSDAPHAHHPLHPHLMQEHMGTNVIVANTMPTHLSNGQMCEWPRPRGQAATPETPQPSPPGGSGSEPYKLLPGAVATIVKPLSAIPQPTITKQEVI
E coli growth = E. coli growth inhibition, primary screen, OD600; Escherichia coli growth, 23 h; active compounds read low; OD600 absorbance (no concentration beside the values); 330,000 compounds, 0.21% hits; AID 1053175, 2014;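 active means OD600 absorbance below the run mean of sample wells minus 3.6 SD, in any replicate, cut at about 0.56 in these data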;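 further: stock transfer was 300 nL into about 60 µL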
FGF22 binding = binders of human FGF22 protein, primary screen, FGF22 synaptogenesis inhibitor project, biophysical, thermal shift, single point; recombinant FGF22 thermal shift, SYPRO orange fluorescence; percent of sucrose octasulfate shift, DMSO zero; 340,000 compounds, 1.5% hits; calls only at 9.99 µM;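 active means melting point raised past a set limit in the mean and every replicate; inconclusive means no clear call; three in four hits are not shown here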
Target sequence (Q9HCT0 whole entry, looked up): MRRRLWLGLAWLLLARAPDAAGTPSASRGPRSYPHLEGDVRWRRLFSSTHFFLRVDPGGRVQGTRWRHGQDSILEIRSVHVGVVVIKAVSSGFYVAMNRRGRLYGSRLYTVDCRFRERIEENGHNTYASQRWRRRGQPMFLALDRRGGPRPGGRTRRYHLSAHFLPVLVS
Vif TR-FRET = inhibitors of Vif binding to APOBEC3G peptide, primary screen, biochemical, TR-FRET, GST-Vif 1-94, biotin-A3G peptide, dose response retest (AID 1117319) | TR-FRET GST-Vif / biotin-A3G peptide binding; higher % means a stronger effect; test concentration not given here; strong numbers were not always called active | inhibition, %, or IC50 in µM where a hit was titrated | 260,000 compounds, 0.57% hits;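 active means above the screen mean plus three standard deviations and confirmed in dose response; inconclusive means results disagree or hit not tested in dose response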;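 further: Vif residues 1-94 fused to GST binding biotinylated APOBEC3G peptide 110-148; 0% = full assay without inhibitor and 100% = GST in place of GST-Vif; retest series ran down from 100 µM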
AF4-AF9 inh = inhibitors of AF4 peptide binding to AF9, primary screen, biochemical, AlphaScreen, biotin-AF4 peptide, FLAG-AF9, single point; inhibition, % at 10 µM; Protein AF-9 (Homo sapiens), P42568; 350,000 compounds, 0.47% hits; AID 651704, 2012;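 active means every replicate reaching a set inhibition limit, whatever the replicate mean, cut at about 25% in these data; inconclusive means mean inhibition reaches that limit but some replicates miss it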;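 further: 0% = plate neutral control median and 100% = total signal loss; the record names both 10 and 1 µM as test concentration; the first replicate is given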
ALR inh = inhibitors of human ALR sulfhydryl oxidase, primary screen, biochemical, H2O2 detection, HRP-luminol luminescence, single point; FAD-linked sulfhydryl oxidase ALR (Homo sapiens), P55789; purified ALR, DTT oxidation; inhibition, % (no concentration beside the values); 290,000 compounds, 3.8% hits;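 active means mean and each replicate at 75% or more; inconclusive means only one of the two met; inactive means neither met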;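 further: stock transfer was 7.5 nL into about 7.5 µL; 0% = neutral wells and 100% = wells with inactivated enzyme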
Target sequence (P55789 whole entry, looked up): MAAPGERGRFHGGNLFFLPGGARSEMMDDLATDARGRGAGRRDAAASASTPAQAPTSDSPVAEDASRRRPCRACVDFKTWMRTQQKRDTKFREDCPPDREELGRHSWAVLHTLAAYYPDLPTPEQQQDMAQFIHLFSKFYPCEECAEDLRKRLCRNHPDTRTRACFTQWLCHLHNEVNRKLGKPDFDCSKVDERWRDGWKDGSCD
Ecoli rRNA inh = reduced GFP signal of wild-type E. coli, primary screen, bacterial rRNA inhibitor project, GFP/RFP fluorescence, OD600, single point | E. coli WT GFP vs humanized-ribosome RFP mutants, 24 h; active compounds read low; DMSO median 0, no signal -100 | GFP signal change (wild-type ribosome), % (test concentration not listed) | 350,000 compounds, 1.6% hits | AID 720706, 2013;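 active means significant combined selectivity score with lowered wild-type GFP, culture density cut under 30%, mutant RFP and density less affected; inactive means any of these conditions unmet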; further: one replicate is shown; some compounds called inactive have numbers as strong as hits
Ecoli rRNA inh OD600 = further read-out of Ecoli rRNA inh, marked with its call; OD600 change, %; measured here: OD600 growth;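 optical density of the mix in the first replicate; 0 = DMSO median and -100 = no signal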
Ecoli rRNA inh RFP = recorded beside Ecoli rRNA inh, whose call it bears; RFP signal change, %; measured here: RFP humanized mutant strains;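 first replicate; 0 = DMSO median and -100 = no signal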
Active calls of the source: *; i = inactive; ? = inconclusive; / = not tested or not shown. The list is partial; the hit share may differ from the screen's.

SMILES | HNF4A DNA FP | E coli growth | FGF22 binding | Vif TR-FRET | AF4-AF9 inh | ALR inh | Ecoli rRNA inh | Ecoli rRNA inh OD600 | Ecoli rRNA inh RFP
CCc1nc2ccc(C(=O)Nc3ccc4c(c3)OCC(=O)N4)cn2c1N(C)C(=O)Cc1ccccc1 | 4.2 | / | i | / | 1.9 | / | -2 | 1 | 0.0
Cc1ccccc1NC(=O)Cc1cccc(C(F)(F)F)c1 | -0.6 | 0.63 | i | -9% | 0.4 | -2 | 13 | 5 | 2.8
COc1ccc(-c2cnc3c(c2)C(=O)N([C@H](C)CO)C[C@@H](C)[C@H](CN(C)C(=O)CN(C)C)O3)cc1 | / | / | i | / | -1.8 | / | -5 | -8 | 0.0
COc1cccc(/C=N/Nc2ncnc(Cl)c2N)c1O | 1.0 | / | i | / | 4.7 | -4 | -41 | -66 | -16
Cc1cccnc1C(NC(=O)C1CCN(Cc2ccc(Oc3ccccc3)cc2)CC1)c1ccc(F)cc1 (centres undefined) | 1.8 | / | i | / | -0.7 | / | -58 | -74 | -11
CCCCCCc1cc2cc(-c3nnc(-c4cc(OC)c(OC)c(OC)c4)o3)c(=O)oc2cc1O | / | 0.71 | / | 6% | / | -7 | / | / | /
Cc1nn(C(=O)c2cccc([N+](=O)[O-])c2)c(C)c1Br | -0.4 | 0.71 | i | -3% | 1.2 | -1 | 11 | 6 | 0.0
CCCNC(=O)C1(CC2CC(c3ccccc3)=NO2)CCN(C(=O)C2CCCC2)CC1 (centres undefined) | 0.8 | 0.71 | i | / | 0.1 | -7 | 5 | 4 | -0.7
CC(=O)Nc1ccc(/C=N/NC(=O)c2cccc(S(=O)(=O)N3CCOCC3)c2)cc1 | 1.7 | / | i | 0% | -0.7 | -8 | 14 | 20 | 9.1
O=C(Nc1ccc(OC(F)(F)F)cc1)C1CC(c2ccc(F)cc2)=NO1 (centres undefined) | -6.2 | 0.7 | / | / | -2.6 | -3 | -1 | 9 | -0.8

Complete entries from above.
Shown for CCCCCCc1cc2cc(-c3nnc(-c4cc(OC)c(OC)c(OC)c4)o3)c(=O)oc2cc1O → HNF4A DNA FP: /; E coli growth: 0.71; FGF22 binding: /; Vif TR-FRET: 6%; AF4-AF9 inh: /; ALR inh: -7; Ecoli rRNA inh: /; Ecoli rRNA inh OD600: /; Ecoli rRNA inh RFP: /
Shown for Cc1nn(C(=O)c2cccc([N+](=O)[O-])c2)c(C)c1Br → HNF4A DNA FP: -0.4; E coli growth: 0.71; FGF22 binding: i; Vif TR-FRET: -3%; AF4-AF9 inh: 1.2; ALR inh: -1; Ecoli rRNA inh: 11; Ecoli rRNA inh OD600: 6; Ecoli rRNA inh RFP: 0.0

Later entries:
SMILES | HNF4A DNA FP | E coli growth | FGF22 binding | Vif TR-FRET | AF4-AF9 inh | ALR inh | Ecoli rRNA inh | Ecoli rRNA inh OD600 | Ecoli rRNA inh RFP
CCOC(=O)C1CCCN(Cc2cc(Br)c(OC)cc2OC)C1 (centres undefined) | 6.5 | 0.74 | / | 5% | / | 1 | / | / | /
O=C(/C=C/c1ccc(-c2ccccc2[N+](=O)[O-])o1)c1ccccc1 | -3.6 | / | i | 19% | 2.4 | 13 | -17 | -15 | 12
CSc1ccc(Cn2c(C)c(C(=O)NCc3cccc(Cl)c3)sc2=O)cc1 | 6.4 | / | i | / | 0.4 | / | 1 | -10 | 8.1
CCCCCCN=CC1=C(O)CC(C)(C)CC1=O | -0.4 | 0.69 | / | -12% | / | -5 | / | / | /
COc1ccccc1C1CC(=O)Oc2cc(OC)c(OC)c(OC)c21 (centres undefined) | 2.3 | 0.71 | i | 0% | -3.7 | / | 4 | -5 | -0.6
Cc1[nH]c(=O)cc2ccccc12 | -2.0 | 0.71 | / | 3% | / | / | / | / | /
COc1ccccc1NC(=O)CSc1ccc(-c2ccco2)nn1 | 4.0 | 0.68 | i | 9% | 2.9 | 6 | -21 | -22 | -0.6
CS(=O)(=O)N1CCN(c2ccc(NC(=O)C(c3ccccc3)c3ccccc3)cc2)CC1 | 1.9 | 0.7 | / | / | / | -5 | / | / | /
Cc1cc(NC(=O)CSCCO)no1 | -3.2 | 0.73 | / | 8% | / | -7 | / | / | /
O=C(COC(=O)c1cc([N+](=O)[O-])ccc1NCCO)NCc1cccs1 | 1.8 | 0.67 | i | 8% | -2.4 | / | 3 | 8 | -3.9
Cc1nnc2n(-c3ccccc3)c(=O)c3c4c(sc3n12)CCCC4 | 1.1 | 0.68 | i | / | -1.3 | 4 | -2 | -8 | -1.7
CCOC(=O)Nc1ccc2c(c1)N(C(=O)CN1CCN(CCO)CC1)c1ccccc1CC2 | 0.1 | 0.68 | i | / | 5.4 | / | 8 | 5 | 0.1
Cc1ccc(C(=O)NCc2ccncc2)cc1S(=O)(=O)N1CCCCC1 | -2.5 | 0.67 | i | -8% | 2.4 | 4 | -1 | -1 | 0.5
COc1ccc(OCCN(C)C(=O)c2cccc(S(=O)(=O)N(C)c3ccccc3)c2)cc1 | -2.3 | 0.71 | i | -5% | 3.6 | -3 | -12 | -34 | -0.7
CN(C)CC(=O)N1[C@H](C#N)[C@H](c2ccc(-c3ccc(C(=O)N(C)C)cc3)cc2)[C@H]1CO | / | / | i | / | -0.4 | / | 1 | 9 | 1.2
CC1CCCCN1CCNC(=O)c1ccc2c(c1)N(Cc1cccc(Cl)c1)C(=O)c1ccccc1S2=O (centres undefined) | 3.2 | 0.69 | i | / | 11 | -21 | 2 | -5 | 3.2
NC(=O)c1c(-c2cccs2)csc1N | / | 0.69 | / | 26% | / | 12 | / | / | /
NC1=NC[C@@H](Cc2ccc(O)cc2)N1CCC12CC3CC(CC(C3)C1)C2 | 0.0 | / | / | / | 0.7 | 2 | -36 | -52 | -7.1
C/C(=N\NC(=O)c1cc(C)nc2ccccc12)c1ccco1 | -1.3 | / | i | 13% | 1.9 | -4 | 3 | 9 | -0.5
O=C(Cn1cc(S(=O)(=O)Cc2cccc(F)c2)c2ccccc21)N1CCOCC1 | 7.1 | 0.68 | i | / | 0.4 | 1 | 13 | 14 | 2.2
O=C(C1CCOCC1)N1CCCC(N2CCN(c3cccc(C(F)(F)F)c3)CC2)C1 (centres undefined) | 3.0 | 0.68 | i | / | 2.1 | -2 | 4 | 12 | 1.3
C[C@H](CO)N1C[C@H](C)[C@H](CN(C)C(=O)c2ccccn2)Oc2ncc(C3=CCCCC3)cc2C1=O | / | / | i | / | -3.6 | / | -1 | -8 | -1.1
O=C(Nc1ccc(F)cc1)C1CCCN1S(=O)(=O)c1cccc2nsnc12 (centres undefined) | 2.7 | 0.67 | i | / | -0.5 | -3 | 2 | 7 | -3.9
Cc1ccc(C(=O)OCC(=O)Nc2cc(S(=O)(=O)N3CCOCC3)ccc2C)cc1 | 1.7 | 0.67 | i | 3% | -3.6 | 1 | -7 | -13 | 2.7
CCCSc1ccc([C@@H]2[C@@H]3C(=O)N(C)C(=O)[C@@H]3[C@]3(C(=O)OC)CCCCN23)cc1OC | 0.1 | / | i | / | -11 | -1 | -7 | -26 | -6.7
C[C@H]1CN([C@@H](C)CO)C(=O)CCCn2cc(nn2)CO[C@@H]1CN(C)Cc1cccc2c1OCCCO2 | / | / | i | / | -5.7 | / | 0 | 4 | -0.8
COc1ccc(-c2ccc(CCC(=O)O)n2-c2ccccc2OC)cc1 | 3.2 | 0.69 | i | 15% | 1.9 | 99* | -2 | -1 | -3.5
COc1ccc(-c2cc(-c3cc(C)ccc3O)[nH]n2)cc1 | 0.6 | 0.59 | / | 32% | 6.7 | 50 | -56 | -80 | -17
COCCOC(=O)N1CCCCC1c1cc(C(=O)NCc2ccc(Cl)c(Cl)c2)no1 (centres undefined) | -3.3 | / | i | / | -2.7 | / | -11 | -19 | -1.7
O=C(O)Cn1cnc2c(=S)nc[nH]c21 | 13 | / | i | / | -0.2 | 44 | 11 | 2 | -1.6
CN(C)C(=O)c1ccc(-c2ccc([C@@H]3[C@@H](CO)N(C(=O)C4CC4)[C@H]3C#N)cc2)cc1 | / | / | i | / | -8.3 | / | 5 | 6 | -3.4
COc1cccc(-c2cc(C(=O)NCCCN3CCOCC3)no2)c1 | -0.2 | 0.63 | i | ? | -3.5 | -6 | 2 | 3 | 2.5
C=CCC(CC=C)(NC(=O)c1cccc(C)c1)c1ccccc1 | -0.8 | 0.67 | i | -6% | 2.7 | 2 | 10 | 3 | -0.4
CC1=NN(C(=O)c2ccc(C)o2)C(O)(c2ccccc2)C1 (centres undefined) | -0.2 | 0.69 | i | -3% | 3.8 | 26 | 10 | 4 | -4.8
C[C@H]1CN([C@@H](C)CO)C(=O)Cc2cc(NC(=O)Cc3cn(C)c4ccccc34)ccc2O[C@H]1CN(C)Cc1ccc(Cl)c(Cl)c1 | / | / | i | / | 3.5 | / | -1 | 0 | -0.1
O=[N+]([O-])c1ccc(NC(=S)N2CCOCC2)cc1 | -1.0 | 0.67 | i | 0% | 7.4 | / | 16 | 9 | 1.9
COc1ccc(Cl)cc1N(CC(=O)Nc1ccccc1C(=O)N1CCOCC1)S(C)(=O)=O | 5.5 | 0.73 | i | -2% | 0.0 | -14 | 8 | 9 | 3.5
COc1ccc(S(=O)(=O)NCC(=O)N(CC(=O)NC(C)(C)C)Cc2cccs2)cc1 | 3.4 | 0.71 | i | 1% | -2.7 | 5 | 6 | 1 | 4.9
COc1ccc(-c2nc3c(Br)c(N)c(Br)cc3o2)cc1 | 4.9 | 0.73 | i | ? | 5.5 | / | 21 | 11 | -9.0
O=C(c1ccc(F)cc1)C1CCN(C(=O)c2c(F)cccc2F)CC1 | 3.0 | 0.69 | i | -1% | -2.7 | -5 | -13 | -20 | -1.5
O=C1CCC(C(=O)N2CCC(CO)(Cc3ccc(Cl)cc3)CC2)=NN1 | -1.5 | 0.67 | i | 4% | -1.4 | -15 | 6 | 4 | -1.9
O=C(C1CCCCC1)N1CCC2CC1c1cc(-c3ccc4c(c3)OCO4)ccc12 (centres undefined) | 12 | / | i | / | 1.9 | / | -3 | 0 | 0.0
CN(C)S(=O)(=O)c1ccc(N2CCCC2)c(C(=O)Nc2ccc(F)cc2F)c1 | -0.8 | 0.68 | i | -5% | 8.1 | -4 | -1 | 0 | -2.1
CC(C)CNc1ncnc2c1ncn2[C@H]1CN(C2CCCC2)C[C@@H](CO)O1 | -0.7 | / | i | / | 0.2 | / | 6 | 9 | 2.8
O=C(C[C@H]1CC[C@H](NC(=O)Nc2ccc(F)cc2)[C@@H](CO)O1)NCc1ccccn1 | / | / | i | / | 0.4 | / | 3 | 11 | -1.1
CC(c1ccon1)N(C)C(=O)CCc1nnc(CCCCc2ccccc2)o1 (centres undefined) | -3.3 | 0.71 | i | 0% | 0.1 | 1 | 9 | 3 | 1.7
CC1CCC2(CC1)NC(=O)N(CC(=O)c1ccc[nH]1)C2=O (centres undefined) | 1.6 | 0.79 | / | 7% | / | -2 | / | / | /
COC(=O)c1ccc(N=NNc2ccc(C(=O)OC)cc2)cc1 | -2.2 | 0.68 | / | 8% | / | -7 | / | / | /
COc1ccc(/C=C/C(=O)NC(=S)NNC(=O)c2cc(OC)c(OC)c(OC)c2)cc1OC | 8.7 | 0.65 | i | / | 12 | 57 | -10 | 2 | 1.7
Cc1cccc(C)c1NC(=O)c1cc(-c2ccccn2)nc2ccccc12 | 3.1 | 0.71 | i | 6% | -0.9 | / | -9 | -6 | -1.1
